Compound activity deposited in PubChem BioAssay by several laboratories.
Autofluor counter – compound fluorescence in toxin protease inhibitor counterscreen; compound autofluorescence counterscreen, microsphere flow cytometry; active compounds read high; fluorescence intensity (concentration not given with the values); 360,000 tested, 3.1% active;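 active = at least 3 SD above the mean of all compounds, about 16000 in these data; inconclusive = too few beads counted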;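 note: 100 nL of 1 mM stock went into each well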
BJeLR viability – kills HRASV12-expressing BJeLR cells; BJeLR (HRASV12) viability, CellTiter-Glo ATP luminescence, 48 h; reference of the scale not given here; inhibition, % (no concentration beside the values); 300,000 tested, 0.17% active; AID 1554;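 active = replicate mean above 50%; inconclusive = above 50% but judged a plate artefact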;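 note: 50 nL library stock added to about 25 µL; numbers are from one replicate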
PrP UTR inh – inhibition of PrP 5' UTR reporter expression | cell-based PrP 5' UTR mRNA reporter, plate reader | inhibition, % (test concentration not listed) | 340,000 tested, 0.35% active;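 active = every replicate at 50% or more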;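 note: 0 = median of the neutral control wells; tested in H4 reporter cells; numbers are from one replicate; inactives centre near -14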
Sa RN4220 lethal – S. aureus RN4220 growth inhibition; OD600, 16 h; 330,000 tested, 0.33% active; inhibition, % (test concentration not listed);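 active = z-score of -3 or lower and OD600 up to 0.18 on both plates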;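 note: plate controls were untreated cells for no effect and reference antibiotic for full effect; stock transfer was 100 nL into about 80 µL; one replicate is shown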
Sa ugtP lethal – compounds lethal to S. aureus RN4220 ugtP deletion mutant; 330,000 tested, 0.54% active; OD600 growth, 16 h; some inactives read as strong as hits; growth inhibition, % (concentration not given with the values);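 active = z-score under -3 and OD600 up to 0.15 on both plates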;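 note: plate controls were untreated wells for no effect and antibiotic for full effect; wells of about 80 µL received 100 nL stock; the first replicate is given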
Mtb hypoxia inh – reduces hypoxia-regulated biosensor signal in M. tuberculosis; M. tuberculosis hypoxia-regulated fluorescent reporter, fluorescence; fluorescence inhibition, % (no concentration beside the values); 300,000 tested, 0.1% active; AID 1159583;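 active = 35 to 45% if threefold the growth effect, above 45% if 1.5-fold the growth effect; inactive = the rest, general growth blockers included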;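 note: wells of about 50 µL received 100 nL stock; 0% = vehicle wells and 100% = reference inhibitor wells; whole bacteria with a GFP reporter of the hypoxia response; strong numbers were not always called active; many hits fall short of the cut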
Mtb hypoxia inh growth – also measured in Mtb hypoxia inh; calls as there; growth inhibition, %; measured here: M. tuberculosis growth (absorbance);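 0% = vehicle and 100% = reference antibiotic; read after six days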
Starred values were filed as active, the others as inactive.

For COC(=O)C(NS(=O)(=O)c1ccc(NC(C)=O)cc1)C(C)C (stereo not drawn) the results were Autofluor counter 10553, BJeLR viability 3, PrP UTR inh -18, Sa RN4220 lethal -0.9, Sa ugtP lethal -6, Mtb hypoxia inh -6 and Mtb hypoxia inh growth -3.
Screening CCN(CC)S(=O)(=O)c1cccc(C(=O)N/N=C(\C)c2ccc(O)cc2O)c1 returned Autofluor counter 4347, BJeLR viability 10 and PrP UTR inh 28.
For O=C(CSc1ccccc1)N1CCC(N2CCC(C(=O)N3CCCC3)CC2)CC1 the results were Autofluor counter 5998, BJeLR viability -19, PrP UTR inh -30, Sa RN4220 lethal 17, Sa ugtP lethal 8, Mtb hypoxia inh -9 and Mtb hypoxia inh growth 2.
`Cc1ccc(C)c(S(=O)(=O)N2CCN(CC(=O)NC(C)c3ccccc3)CC2)c1` (stereo not drawn) gave Autofluor counter 3675, PrP UTR inh -14, Sa RN4220 lethal 3.4, Sa ugtP lethal 1, Mtb hypoxia inh 12 and Mtb hypoxia inh growth 1.
CC(NC(=O)CCCN1C(=O)c2ccccc2C1=O)c1ccc2c(c1)CCCC2 (stereo not drawn) was read as Autofluor counter 3228, BJeLR viability 3, PrP UTR inh -19, Sa RN4220 lethal 11, Sa ugtP lethal 1, Mtb hypoxia inh -7 and Mtb hypoxia inh growth -3.
For Cc1cccc(NC(=O)CSCC(=O)N(C)CC(=O)Nc2cccc(F)c2)c1 the results were Autofluor counter 6669, BJeLR viability 7, PrP UTR inh -1, Sa RN4220 lethal 0.5, Sa ugtP lethal -1, Mtb hypoxia inh 6 and Mtb hypoxia inh growth 0.
Screening S=C(Nc1ccc(Cl)cc1)N1CCN(C2CCCCC2)CC1 returned Autofluor counter 21880*, BJeLR viability 2, PrP UTR inh -3, Sa RN4220 lethal -0.2, Sa ugtP lethal 3, Mtb hypoxia inh 9 and Mtb hypoxia inh growth 1.
Screening CCc1ccc(C=NNC(=O)c2ccccn2)cc1 returned Sa RN4220 lethal 1.3, Sa ugtP lethal 9, Mtb hypoxia inh 10 and Mtb hypoxia inh growth 15.
COc1ccccc1C(=O)Nc1ccnn1C1CCN(C/C=C/c2ccccc2)CC1 was read as Autofluor counter 5861, BJeLR viability -7, PrP UTR inh -12, Sa RN4220 lethal 3.6, Sa ugtP lethal 14, Mtb hypoxia inh 2 and Mtb hypoxia inh growth 8.
`CCn1c(SCC(=O)Nc2nncs2)nnc1-c1ccco1` gave Autofluor counter 3866, BJeLR viability -6, PrP UTR inh 2, Sa RN4220 lethal 0.6, Sa ugtP lethal 2, Mtb hypoxia inh 2 and Mtb hypoxia inh growth 12.
For Cc1ccc(S(=O)(=O)N2CCOCC2)cc1NC(=O)CSc1nnc(N)s1 the results were Autofluor counter 4496, BJeLR viability -1, PrP UTR inh -13, Sa RN4220 lethal 6.9, Sa ugtP lethal 5, Mtb hypoxia inh 13 and Mtb hypoxia inh growth 3.
CCN1C(=O)c2ccccc2S(=O)(=O)c2ccc(C(=O)N3CCOCC3)cc21 was read as Autofluor counter 4228, BJeLR viability 0, PrP UTR inh -5, Sa RN4220 lethal -1.6, Sa ugtP lethal -11, Mtb hypoxia inh -2 and Mtb hypoxia inh growth -10.
Screening O=C(/C=C/c1ccc([N+](=O)[O-])cc1)Oc1ccc(/C=N/NC(=O)c2ccncc2)cc1 returned Autofluor counter 5673, BJeLR viability 9 and PrP UTR inh -8.
O=C(NCC12CC3CC(CC(C3)C1)C2)c1nn2c(c1Cl)NC(c1ccco1)CC2C(F)(F)F (stereo not drawn) was read as Autofluor counter 4794, BJeLR viability 2, PrP UTR inh -6, Sa RN4220 lethal 3.4 and Sa ugtP lethal 5.
For COc1ccc(N2CCN(C(=O)c3ccc(Br)o3)CC2)cc1 the results were Autofluor counter inconclusive, BJeLR viability -5, PrP UTR inh -10, Sa RN4220 lethal 2.4, Sa ugtP lethal 4, Mtb hypoxia inh 17 and Mtb hypoxia inh growth 15.
`NNc1nccc(Nc2ccccc2C(=O)O)n1` gave Autofluor counter 2060, BJeLR viability 6, PrP UTR inh -15, Sa RN4220 lethal 0.7, Sa ugtP lethal -3, Mtb hypoxia inh 0 and Mtb hypoxia inh growth -3.
Cn1c(C(=O)O)c(C=O)c2ccccc21 was read as Autofluor counter 3978, BJeLR viability 3, PrP UTR inh -37, Sa RN4220 lethal 6.0, Sa ugtP lethal 8, Mtb hypoxia inh 10 and Mtb hypoxia inh growth 6.
Screening Cc1ccc(C(=O)/C=C/c2c[nH]c3ccccc23)cc1 returned Autofluor counter 5757, BJeLR viability -1, PrP UTR inh -39, Sa RN4220 lethal 2.0, Sa ugtP lethal 2, Mtb hypoxia inh 16 and Mtb hypoxia inh growth 11.
`CN(c1cccc(NC(=O)CN(c2cccc(Cl)c2)S(=O)(=O)c2ccc(Cl)cc2)c1)S(C)(=O)=O` gave Autofluor counter 1927, BJeLR viability -7 and PrP UTR inh -4.
For Cc1cc(C(=O)O)c2ccccc2n1 the results were Autofluor counter 9613, BJeLR viability -6, PrP UTR inh 8, Sa RN4220 lethal 1.5, Sa ugtP lethal -1, Mtb hypoxia inh 5 and Mtb hypoxia inh growth 8.

Of the compounds above, 3 contain two or more sulfur atoms:
`CCn1c(SCC(=O)Nc2nncs2)nnc1-c1ccco1` gave Autofluor counter 3866, BJeLR viability -6, PrP UTR inh 2, Sa RN4220 lethal 0.6, Sa ugtP lethal 2, Mtb hypoxia inh 2 and Mtb hypoxia inh growth 12.
For Cc1ccc(S(=O)(=O)N2CCOCC2)cc1NC(=O)CSc1nnc(N)s1 the results were Autofluor counter 4496, BJeLR viability -1, PrP UTR inh -13, Sa RN4220 lethal 6.9, Sa ugtP lethal 5, Mtb hypoxia inh 13 and Mtb hypoxia inh growth 3.
`CN(c1cccc(NC(=O)CN(c2cccc(Cl)c2)S(=O)(=O)c2ccc(Cl)cc2)c1)S(C)(=O)=O` gave Autofluor counter 1927, BJeLR viability -7 and PrP UTR inh -4.

Back to the main list, starting 2 compounds before the break.
`CN(c1cccc(NC(=O)CN(c2cccc(Cl)c2)S(=O)(=O)c2ccc(Cl)cc2)c1)S(C)(=O)=O` gave Autofluor counter 1927, BJeLR viability -7 and PrP UTR inh -4.
For Cc1cc(C(=O)O)c2ccccc2n1 the results were Autofluor counter 9613, BJeLR viability -6, PrP UTR inh 8, Sa RN4220 lethal 1.5, Sa ugtP lethal -1, Mtb hypoxia inh 5 and Mtb hypoxia inh growth 8.
Cn1c(SCC(=O)N2CCCC2)nnc1-c1cccs1 was read as Autofluor counter 3591, BJeLR viability 0, PrP UTR inh -25, Sa RN4220 lethal -2.1, Sa ugtP lethal 1, Mtb hypoxia inh -4 and Mtb hypoxia inh growth -8.
Screening NC(=O)Nc1ccccc1C(=O)NCCc1ccccc1 returned Autofluor counter 2526, BJeLR viability -3, PrP UTR inh -60, Sa RN4220 lethal 6.0, Sa ugtP lethal 5, Mtb hypoxia inh 7 and Mtb hypoxia inh growth 4.
`CC(=O)Nc1c(C(=O)O)oc2ccccc12` gave Autofluor counter 9793, BJeLR viability 3, PrP UTR inh -16, Sa RN4220 lethal -1.4, Sa ugtP lethal -7, Mtb hypoxia inh -4 and Mtb hypoxia inh growth 9.
Screening COc1ccc(-n2c(SC(C)C(=O)N3CCOCC3)nc3ccccc3c2=O)cc1 (stereo not drawn) returned Autofluor counter 5683, BJeLR viability 10, PrP UTR inh -18, Sa RN4220 lethal 3.0, Sa ugtP lethal 10, Mtb hypoxia inh 4 and Mtb hypoxia inh growth 0.
COCCN1CC(C(=O)NCc2ccccc2-n2ccnc2C)CCC1=O (stereo not drawn) was read as Autofluor counter 5676, BJeLR viability 0, PrP UTR inh -3, Sa RN4220 lethal -1.1, Sa ugtP lethal -5, Mtb hypoxia inh -10 and Mtb hypoxia inh growth 6.
N=c1c(S(=O)(=O)c2ccc(Br)cc2)cc2c(=O)n3ccccc3nc2n1Cc1ccccc1 was read as Autofluor counter 6322, BJeLR viability -9, PrP UTR inh -21, Sa RN4220 lethal -2.1, Sa ugtP lethal -4, Mtb hypoxia inh 0 and Mtb hypoxia inh growth 12.
`C/C(=N\Nc1nc(N2CCOCC2)nc(N2CCOCC2)n1)c1cccc([N+](=O)[O-])c1` gave Autofluor counter 2664, BJeLR viability -3 and PrP UTR inh -11.
COc1ccc(N=C2SC(CC(=O)Nc3ccccc3)C(=O)N2CCc2ccccn2)cc1 (stereo not drawn) was read as Autofluor counter 2374, BJeLR viability 10, PrP UTR inh -15, Sa RN4220 lethal 3.0, Sa ugtP lethal 7, Mtb hypoxia inh 7 and Mtb hypoxia inh growth 0.
O=C(NCc1ccc2c(c1)OCO2)C1CC(=O)N(c2ccc(O)cc2)C1 (stereo not drawn) was read as Autofluor counter 3502, BJeLR viability 10, PrP UTR inh 4, Sa RN4220 lethal 5.7 and Sa ugtP lethal 8.
Screening CCN(C(=O)COC(=O)c1ccc[nH]c1=O)c1cccc2ccccc12 returned Autofluor counter 4305, PrP UTR inh -15, Sa RN4220 lethal -0.3, Sa ugtP lethal 1, Mtb hypoxia inh 8 and Mtb hypoxia inh growth 7.
For O=C(NCc1ccc(Cl)cc1)C1CCCCN1S(=O)(=O)c1ccccc1 (stereo not drawn) the results were Autofluor counter 5579, BJeLR viability -11, PrP UTR inh -17, Sa RN4220 lethal -1.8, Sa ugtP lethal 15, Mtb hypoxia inh 3 and Mtb hypoxia inh growth 8.
For CCOc1ccccc1N(C)C(=O)CCS(=O)(=O)c1ccc2c(c1)NC(=O)C(C)S2 (stereo not drawn) the results were Autofluor counter 5338, BJeLR viability -5, PrP UTR inh -2, Sa RN4220 lethal 2.7, Sa ugtP lethal 9, Mtb hypoxia inh -1 and Mtb hypoxia inh growth 1.
`COc1ccccc1N1CCN(S(=O)(=O)CCNC(=O)Cc2ccc(F)cc2)CC1` gave Autofluor counter 5512, BJeLR viability 4, PrP UTR inh -14, Sa RN4220 lethal -3.5, Sa ugtP lethal 2, Mtb hypoxia inh -1 and Mtb hypoxia inh growth 6.
For CN(C)CC(=O)N1c2ccccc2Sc2ccc(Cl)cc21 the results were Autofluor counter 2527, BJeLR viability 20, PrP UTR inh -17, Sa RN4220 lethal 1.5, Sa ugtP lethal 12, Mtb hypoxia inh -2 and Mtb hypoxia inh growth 10.
`CC(C)C(C(=O)NCc1ccco1)N(C(=O)CNS(=O)(=O)c1ccc(Cl)cc1)C1CCCC1` (stereo not drawn) gave Autofluor counter 3041, BJeLR viability -7, PrP UTR inh -15, Sa RN4220 lethal 0.6 and Sa ugtP lethal 5.
COc1cc(C)c(CN2CCC(n3nccc3NC(=O)C3CCOC3)CC2)cc1C (stereo not drawn) was read as Autofluor counter 6026, BJeLR viability 2, PrP UTR inh -7, Sa RN4220 lethal 0.5, Sa ugtP lethal 1, Mtb hypoxia inh -13 and Mtb hypoxia inh growth -2.
O=C(NCc1cccnc1)c1cccc(Cl)c1 was read as Autofluor counter 2785, BJeLR viability -8, PrP UTR inh -9, Sa RN4220 lethal 2.9 and Sa ugtP lethal -5.
Screening O=C1c2ccccc2C(=O)N1CCC#Cc1ccc2cc(CCCO)oc(=O)c2c1 returned Autofluor counter 3755, PrP UTR inh -9, Sa RN4220 lethal 6.4, Sa ugtP lethal -6, Mtb hypoxia inh 5 and Mtb hypoxia inh growth 3.
`CCOc1cc(C(=O)Nc2ccc(S(=O)(=O)Nc3cnc4ccccc4n3)cc2)cc(OCC)c1OCC` gave Autofluor counter 5995, BJeLR viability 3, PrP UTR inh -3, Sa RN4220 lethal 8.5, Sa ugtP lethal 47, Mtb hypoxia inh 14 and Mtb hypoxia inh growth 12.
Cc1ccccc1NC(=O)CN(C)S(=O)(=O)c1cccc2cccnc12 was read as Autofluor counter 4587, BJeLR viability -5, PrP UTR inh -5, Sa RN4220 lethal -1.2 and Sa ugtP lethal 4.
Screening O=C(Cn1cncn1)NCc1ccccc1Br returned Autofluor counter 20396*, BJeLR viability -3, PrP UTR inh -42, Sa RN4220 lethal -0.8, Sa ugtP lethal 0, Mtb hypoxia inh -2 and Mtb hypoxia inh growth -5.
`COc1cccc(N2CCN(C(=O)c3cc(-c4ccc(F)cc4)[nH]c3C)CC2)c1` gave Autofluor counter 3656, BJeLR viability 3, PrP UTR inh -30, Sa RN4220 lethal -0.4, Sa ugtP lethal 15, Mtb hypoxia inh 6 and Mtb hypoxia inh growth 8.
`CN1C(=CC(=O)CSc2nnc(NCc3ccccc3)s2)C(C)(C)c2ccccc21` gave Sa RN4220 lethal -0.8, Sa ugtP lethal -9, Mtb hypoxia inh 4 and Mtb hypoxia inh growth 2.
